A1 inh: inhibitors of the anti-apoptotic protein A1, read as caspase activation; actives 0.066% (n = 330,000); MEF A1-2A-BIM cells, Caspase-Glo 3/7 luminescence, 3 h; percent of clofoctol response, vehicle zero; caspase activation, % (no concentration beside the values); AID 2462;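 active = over half of replicate activation scores above 10%, or exactly half above 10 with the replicate mean above 10; inconclusive = replicate mean below 10 yet half the replicates above 10; inactive = over half of replicates below 10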;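 also: wells of about 30 µL received 50 nL stock; many hits fall short of the cut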
T cruzi repl: blocks replication of Trypanosoma cruzi; T. cruzi beta-gal in NIH3T3, luminescence, 90 h; inhibition, % (test concentration not listed); actives 1.4% (n = 300,000);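 active = mean inhibition across valid replicates above about 55%, limit read from the data; inconclusive = mean below that limit but half or more replicates reach it; inactive = mean below it, under half of replicates reach it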;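 also: signal also drops with host cell toxicity which is not excluded here; 0% = plate median of DMSO wells and 100% = zero luminescence signal; higher percent means less beta-gal luminescence so fewer parasites; stock transfer was 50 nL into about 50 µL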
Calb FLC: affects C. albicans growth with fluconazole; C. albicans CaCi-2 (fluconazole-resistant clinical isolate) + fluconazole, Alamar Blue growth, 48 h; growth inhibition, % (no concentration beside the values); actives 0.57% (n = 300,000); AID 1979;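 active = most replicates above 75%; inconclusive = exactly half above 75%; inactive = most below 75%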;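 also: all wells also contain fluconazole at 8 µg/ml as a sub-toxic cotreatment; 0% = median of DMSO wells and 100% = median of geldanamycin control wells; wells of about 8 µL received 7.5 nL stock; the first replicate is given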
MLL AF4-AF9 inh: MLL-AF4/AF9 protein interaction inhibition; P42568; actives 0.47% (n = 350,000); AID 651704; AlphaScreen, biotin-AF4 peptide binding to FLAG-AF9; inhibition, % at 10 µM;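 active = every replicate reaching a set inhibition limit, whatever the replicate mean, cut at about 25% in these data; inconclusive = mean inhibition reaches that limit but some replicates miss it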;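 also: 0% = plate neutral control median and 100% = total signal loss; the record names both 10 and 1 µM as test concentration; the first replicate is given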
Target sequence (P42568 whole entry, looked up): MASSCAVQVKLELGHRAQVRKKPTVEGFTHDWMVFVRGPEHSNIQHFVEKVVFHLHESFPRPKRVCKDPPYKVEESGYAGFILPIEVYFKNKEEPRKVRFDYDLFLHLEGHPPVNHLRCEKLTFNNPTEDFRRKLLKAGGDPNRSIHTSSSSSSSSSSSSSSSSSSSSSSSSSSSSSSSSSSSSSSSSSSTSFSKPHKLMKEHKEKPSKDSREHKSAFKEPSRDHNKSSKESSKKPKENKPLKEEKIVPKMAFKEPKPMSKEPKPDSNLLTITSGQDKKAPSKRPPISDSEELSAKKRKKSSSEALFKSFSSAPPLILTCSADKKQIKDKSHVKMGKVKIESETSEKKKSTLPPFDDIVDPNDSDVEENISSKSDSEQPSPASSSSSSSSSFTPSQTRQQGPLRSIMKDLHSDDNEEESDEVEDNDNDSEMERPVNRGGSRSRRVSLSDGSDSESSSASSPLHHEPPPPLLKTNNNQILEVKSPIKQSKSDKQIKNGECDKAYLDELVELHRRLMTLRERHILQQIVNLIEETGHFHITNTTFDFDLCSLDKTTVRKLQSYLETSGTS
RanGTP-Imp inh: disruptors of Ran-importin-beta complex formation – biochemical, FRET, CFP-Ran, YFP-importin-beta, homogeneous, primary screen; cell-free CFP-Ran/YFP-importin-beta FRET ratio; inhibition, % (no concentration beside the values); actives 1.1% (n = 300,000); AID 2216;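 active = most replicates above 15%; inconclusive = exactly half above 15%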;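 also: 0% = DMSO wells and 100% = Ran loaded with GDP instead of GTP; wells of about 40 µL received 100 nL stock; the first replicate is given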
Beta cell apopt: blocks beta cell apoptosis; INS-1E cytokine-induced death, ATP luminescence, 48 h; percent of positive-control rescue, neutral wells zero; protection from apoptosis, % (concentration not given with the values); actives 0.8% (n = 300,000); AID 435005;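 active = all replicates at 75% or more, or half of them and the mean; inconclusive = half reach 75% but not the mean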;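 also: 0% = cytokine-treated negative control wells and 100% = positive control rescue; higher means more ATP so stronger rescue from cytokine killing; wells of about 40 µL received 100 nL stock; the first replicate is given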
rRNA inh HTS: inhibits bacterial ribosomal RNA function over humanized ribosomes; AID 720706; actives 1.6% (n = 350,000); GFP signal change (wild-type ribosome), % (test concentration not listed); E. coli WT GFP vs humanized-ribosome RFP mutants, fluorescence, 24 h; stronger effect = lower value; DMSO median 0, no signal -100;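 active = significant combined selectivity score with lowered wild-type GFP, culture density cut under 30%, mutant RFP and density less affected; inactive = any of these conditions unmet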; also: one replicate is shown; some compounds called inactive have numbers as strong as hits
Vif TR-FRET: HIV-1 Vif–A3G interaction blockers – biochemical, TR-FRET, GST-Vif 1-94, biotin-A3G peptide, dose response retest, primary screen (AID 1117319); TR-FRET GST-Vif / biotin-A3G peptide binding; higher % means a stronger effect; test concentration not given here; strong numbers were not always called active; inhibition, %, or IC50 in µM where a hit was titrated; actives 0.57% (n = 260,000);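 active = above the screen mean plus three standard deviations and confirmed in dose response; inconclusive = results disagree or hit not tested in dose response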;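 also: Vif residues 1-94 fused to GST binding biotinylated APOBEC3G peptide 110-148; 0% = full assay without inhibitor and 100% = GST in place of GST-Vif; retest series ran down from 100 µM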
rRNA inh HTS OD600: recorded beside rRNA inh HTS, whose call it bears; OD600 change, %; measured here: OD600 growth;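 optical density of the mix in the first replicate; 0 = DMSO median and -100 = no signal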
rRNA inh HTS RFP: recorded beside rRNA inh HTS, whose call it bears; RFP signal change, %; measured here: RFP humanized mutant strains;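 first replicate; 0 = DMSO median and -100 = no signal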
* = called active by the depositor; ? = inconclusive; . = no result given; & = joins results of further samples.

SMILES	A1 inh	T cruzi repl	Calb FLC	MLL AF4-AF9 inh	RanGTP-Imp inh	Beta cell apopt	rRNA inh HTS	rRNA inh HTS OD600	rRNA inh HTS RFP	Vif TR-FRET
COc1ccc(-n2c(-c3cnccn3)n[nH]c2=S)cc1	1.4	-11	20	.	-3.4	4	.	.	.	-4%
CC(C)CC(CCc1ccccc1)OS(N)(=O)=O (centres undefined)	-1.3	-8	3	-3.2	1.9	2	7	9	0.3	.
COc1cc(NC(=O)c2ccc(OCc3c(C)noc3C)c(OC)c2)cc(OC)c1	0.1	.	.	-2.9	.	4	-4	-17	0.5	.
CCn1cc(CN2CCC(n3nccc3NC(=O)c3ccc4c(c3)OCO4)CC2)c(C)n1	-0.2	12	1	0.7	1.2	.	16	20	-0.6	?
C=CCn1c(SCC(=O)NC(N)=O)nnc1-c1cc2c(s1)CCC(CC)C2 (centres undefined)	-0.4	9	-1	0.5	3.2	0	-9	-13	-5.2	.
CN(C)c1ccc(-n2cccc2/C=C/[N+](=O)[O-])cc1	-0.7	16	-34	25*	0.7	21	4	24	-0.1	5%
O=C(Nc1cccc(S(=O)(=O)N2CCCC2)c1)c1ccco1	-0.8	.	.	2.0	.	-5	-1	-7	-0.1	.
O=C(O)CCc1ccc(-c2cccs2)n1NC(=O)c1ccc(Cl)cc1	0.6	-21	2	.	7.4	-5	.	.	.	11%
O=C(c1cc(S(=O)(=O)N2CCOCC2)ccc1F)N1CCN(Cc2ccccc2)CC1	0.4	2	-1	.	-1.2	-1	.	.	.	0%
Cc1ccc(NC(=O)c2ccc(OC(=O)c3ccco3)cc2)cc1	-1.2	-17	-5	2.1	7.9	-6	1	7	-2.7	8%
COc1ccc(CNC(=O)C[C@H]2C(=O)N(Cc3ccccc3)C[C@@H]2Cc2ccccc2)cc1	0.2	7	1	-0.6	-1.9	3	6	7	-6.2	.
S=C1SCN(CC2CC2)CN1CC1CC1	-0.6	7	6	-0.8	-0.4	3	5	9	-1.6	3%
O=C(Cc1ccccc1)NCc1n[nH]c(=S)n1-c1ccc(Br)cc1	-0.8	2	-4	-5.0	-0.1	2	5	5	-1.2	-1%
Cc1ccc(NC(=O)CSc2ccc3c(c2)OCCO3)c(O)c1	-0.5	-8	-3	0.6	-1.6	5	-16	-15	-2.4	.
Cc1nn(Cc2ccc(F)cc2)c(C)c1NC(=O)c1cnn2c1NC(c1ccccc1)CC2C(F)(F)F (centres undefined)	0.5	26	-2	12	-0.8	-5	-17	-33	5.4	2%
COc1ccc(S(=O)(=O)N2CCC(C(=O)NCC3CCCO3)CC2)cc1Cl (centres undefined)	0.2	-3	-7	-0.2	-2.7	1	2	11	-0.6	.
CC(=O)c1ccc(NC(=O)N[C@@H](Cc2ccccc2)C(=O)O)cc1	0.5	-6	4	.	-0.1	1	.	.	.	-1%
COc1ccc(C2/C=C\CN(C(=O)Nc3ccccc3)CC(=O)N2Cc2ccc(F)cc2)cc1 (centres undefined)	0.8	-17	-3	4.6	0.2	-1	-27*	-18*	-3.9*	.
CCOC(=O)N1CCC(NC(=O)c2cc(C(=O)NCC(OC)OC)ccc2CO)CC1	0.2	-11	-11	.	-3.0	-2	.	.	.	5%
Nc1nonc1C(=O)N/N=C/c1ccc(-c2ccc(Cl)c(C(=O)O)c2)o1	-0.1	-13	-8	-1.5	-0.8	-10	23	12	2.0	-3%
Cc1cc2nc(C3CCCN(C(=S)Nc4ccccc4C)C3)[nH]c2cc1C (centres undefined)	1.3	8	42	.	-2.0	.	.	.	.	-2%
Cc1ccsc1C1C(C#N)=C(N)Oc2n[nH]c(C)c21 (centres undefined)	-0.1	-13	16	0.2	7.8	0	-14	-3	1.6	.
CCCCN(CC)C(=O)CSc1nc2c(sc(=S)n2-c2ccc(OCC)cc2)c(=O)[nH]1	.	19	26	-1.5	2.1	.	-20	-1	9.3	-7%
CCOc1cc(NC(=S)NCCCN2CCOCC2)c(OCC)cc1NC(=O)c1ccccc1C	0.0	6	-2	1.7	0.3	-5	1	4	-0.7	24%
COc1ccc(Br)cc1CN1CCN(C(=O)c2ccc(F)cc2)CC1	0.2	0	14	1.6	2.5	-2	-32	-47	-11	.
O=[N+]([O-])c1ccc(N2CCN(c3ccccc3)CC2)nc1	0.4	-23	-1	1.4	6.5	-2	6	12	1.9	.
Cn1c(N)c(C(=O)Nc2ccccc2)c(=O)[nH]c1=O	-0.6	-22	15	.	0.9	-11	5	3	0.0	.
Cc1cccc(N(C(=O)c2snc(C(N)=O)c2N)C(C(=O)NCC2CCCO2)c2cccs2)c1 (centres undefined)	1.2	5	6	2.4	1.3	.	7	13	2.4	-3%
CCOC(=O)CN1C(=O)N[C@@H](c2cccc(F)c2)C(C(C)=O)=C1C	0.3	2	-6	-0.6	5.2	-9	-4	-3	-3.4	.
O=S(=O)(/C=C/c1ccccc1)N1CCN(Cc2ccccc2)CC1	0.4	11	-25	0.5	?	2	-28	-38	-8.5	-2%
CCn1cc(C(=O)NC(C)C2CC3CCC2C3)cn1 (centres undefined)	1.0	-2	9	.	?	0	.	.	.	1%
O=C(NCc1cccs1)c1cc(S(=O)(=O)N2CCOCC2)ccc1N1CCCC1	0.2	.	.	-15	.	-4	0	-10	1.8	.
CC(=O)N1CCc2c(sc(NC(=O)CS(=O)(=O)c3ccc(F)cc3)c2C#N)C1	0.2	-2	1	-4.1	2.3	2	4	3	16	-3%
COc1ccc(Br)cc1/C=N/NC(=O)c1ccc(COc2ccc3c(c2)CCC3)o1	0.6	9	1	.	3.4	-9	.	.	.	-1%
COCCCn1c(SCC(=O)NC2CCS(=O)(=O)C2)nnc1-c1ccc(Cl)cc1 (centres undefined)	0.7	.	.	2.4	.	-3	4	11	1.6	8%
Cc1nc(=O)c(-c2ccccc2)c(C)n1Cc1ccccc1	1.4	-6	11	-19	-4.1	0	10	-3	-0.1	9%
CC(=O)COc1ccc2c(c1C)O/C(=C\c1ccco1)C2=O	0.0	-10	2	1.5	18*	-1	7	13	3.2	21%
C=CCNc1nc(Nc2ccc(OC)cc2OC)nc(OCC)n1	-0.5	10	3	.	-0.2	1	.	.	.	-2%
CCCc1cc(=O)[nH]c(SC/C=C/c2ccccc2)n1	-0.6	3	10	2.1	-1.2	-5	-9	-14	-2.7	.
CCOc1ccccc1NC(=O)CN(c1ccc(OC)cc1)S(=O)(=O)c1c(C)noc1C	0.2	-7	2	.	-4.5	7	.	.	.	16%&-3%
COc1cc2c(cc1OC)CN(Cc1cc(=O)n3c(-c4ccccc4)csc3n1)CC2	-0.4	8	-18	-0.9	6.5	9	1	3	2.8	1%
CC(C)(C)NC(=O)C(c1ccc(F)cc1)N(Cc1ccco1)C(=O)Cn1nnc(-c2cccs2)n1 (centres undefined)	0.2	4	-11	.	-2.3	-9	.	.	.	3%
CC(C)CC1NC(=O)N(CC(=O)N2CCN(S(=O)(=O)c3ccc4ccccc4c3)CC2)C1=O (centres undefined)	-0.6	13	-3	.	2.7	-1	.	.	.	8%
CCN1CCN(c2ccc(S(=O)(=O)N(CC)CC)cc2[N+](=O)[O-])CC1	0.4	18	-49	.	?	0	.	.	.	2%
CC(C)COC(=O)c1ccc2c(c1O)C(=O)c1ccccc1C2=O	-5.8	-17	-4	.	-3.3	85*	.	.	.	21%
CCOC(=O)C(NC(C)=O)(Nc1ccc(S(=O)(=O)Nc2nccs2)cc1)C(F)(F)F (centres undefined)	0.8	2	1	.	-1.0	-4	.	.	.	-3%
Cc1ccc(C(=O)N2CCCC(Nc3ccc(F)cc3)C2)cc1C (centres undefined)	0.0	13	7	0.0	0.3	1	-35	-32	-3.0	4%
COc1ccc(C(=O)NCCSCc2ccc(C)cc2)cc1	0.1	-1	-4	.	1.0	-1	.	.	.	6%
Cc1ccccc1N=Cc1c(O)n(-c2nccs2)c(=O)c2ccccc12	-0.6	16	7	12	?	7	-13	-16	0.5	-8%
C=CCn1c(SCC(=O)N2CCCC2)nc2scc(-c3cccs3)c2c1=O	-0.4	2	-20	.	-1.2	3	.	.	.	-2%
COc1ccc(S(=O)(=O)N(C)C[C@H]2Oc3ccc(NS(=O)(=O)c4c(C)noc4C)cc3C(=O)N([C@H](C)CO)C[C@@H]2C)cc1	0.9	.	.	-3.4&-1.6	.	3	-6&2	1&3	0.5&-0.3	.
COc1ccc(-c2[nH]ncc2CN(C)Cc2cnccn2)c(OC)c1	-0.1	-12	-3	1.5	1.5	-6	-3	1	-1.8	-15%
O=C(CCNC(=O)c1ccccc1)Nc1ccc(F)c(Cl)c1	-1.0	-5	-5	-0.7	1.7	-2	-2	-2	-0.9	.
N#Cc1ccc(OCC(=O)Nc2nc(-c3ccncc3)cs2)cc1	0.2	.	.	-8.1	.	-5	8	15	-1.6	3%
CCc1ccccc1NC(=O)CN(c1ccc(OC)cc1OC)S(=O)(=O)c1ccccc1[N+](=O)[O-]	0.6	58*	36	2.8	5.8	-12	-14	-13	-6.2	11%
CC(C)CNC(=O)c1ccc2c(c1)C(=O)N(C1CCCCC1)C2=O	0.8	-5	46	-1.8	0.9	-3	1	-4	-1.7	.
O=C(Cc1ccc(F)cc1)Nc1ccc(Cl)cn1	-0.6	-2	0	?	2.4	3	-1	6	-1.4	.
Cc1ccc(OC(=O)CCS(=O)(=O)c2ccc(C)cc2)cc1	0.9	-8	13	-6.0	-3.4	-9	-8	-3	-1.3	.
O=C1CN(C(=O)COc2ccc(Br)cc2Br)c2ccccc2N1	-0.6	-7	24	-1.3	-1.5	3	4	-7	2.5	-8%
COc1ccc(C)cc1NC(=O)CSc1ccc(Cl)cc1	1.3	15	-39	-4.6	28*	-8	15	2	1.8	13%

Remaining list, next part:
SMILES	A1 inh	T cruzi repl	Calb FLC	MLL AF4-AF9 inh	RanGTP-Imp inh	Beta cell apopt	rRNA inh HTS	rRNA inh HTS OD600	rRNA inh HTS RFP	Vif TR-FRET
CC(=O)Oc1c(Cl)c(N2CCOCC2)c(OC(C)=O)c2ccccc12	0.0	-9	43	.	-0.3	-19	.	.	.	1%
CCOC(=O)CN1CC23C=CC(O2)C(C(=O)NC2CCCC2)C3C1=O (centres undefined)	-0.6	-12	0	-4.0	0.7	-3	13	12	-2.1	-1%
COC(=O)CC1(C(=O)OC)Oc2ccc(Br)cc2C(=O)N1c1ccc(Br)cc1Cl (centres undefined)	-1.1	10	19	0.1	5.5	9	-9	-2	0.3	-1%
CCOC(=O)c1[nH]cnc1C(=O)NCc1ccccc1	-0.2	-1	1	2.1	-2.3	-1	-1	9	-0.9	26%
CCOc1cc(-c2noc(N)c2C(=O)OC)cc(OCC)c1OCC	-0.9	-5	9	.	1.0	-41	.	.	.	2%

These rows are one share of the data; the hit share may differ from the screen's.
